Source: PubChem
HNF4A DNA FP – change in binding of human HNF4 alpha to DNA; P41235; HNF4a-FITC DNA binding, fluorescence polarization, 1 h; activity change, % at 10 µM; AID 1224865; actives 0.3% (n = 360,000); in the data active means activity change above about 30%, passing the limit was not always enough;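 further: controls were the assay level and a saturating level of protein; the project sought stronger binding though the title names inhibitors; some compounds called inactive have numbers as strong as hits; positive values seem to mean higher polarization but the record does not say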
Target sequence (P41235 whole entry, looked up): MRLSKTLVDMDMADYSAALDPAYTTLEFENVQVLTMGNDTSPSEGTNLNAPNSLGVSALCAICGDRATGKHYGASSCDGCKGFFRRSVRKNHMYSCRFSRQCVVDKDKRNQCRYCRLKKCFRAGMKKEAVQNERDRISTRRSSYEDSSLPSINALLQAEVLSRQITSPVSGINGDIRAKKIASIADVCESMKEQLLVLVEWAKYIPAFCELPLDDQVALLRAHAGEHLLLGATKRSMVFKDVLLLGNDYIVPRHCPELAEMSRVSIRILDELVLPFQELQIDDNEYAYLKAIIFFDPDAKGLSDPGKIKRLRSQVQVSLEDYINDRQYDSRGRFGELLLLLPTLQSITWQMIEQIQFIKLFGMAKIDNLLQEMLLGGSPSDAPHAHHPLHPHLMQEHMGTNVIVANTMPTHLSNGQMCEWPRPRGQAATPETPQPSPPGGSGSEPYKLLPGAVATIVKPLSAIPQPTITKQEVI
FGF22 binding – FGF22 (human) thermal shift binding. calls only at 9.99 µM. actives 1.5% (n = 340,000). Q9HCT0. recombinant FGF22 thermal shift, SYPRO orange fluorescence; percent of sucrose octasulfate shift, DMSO zero;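 active means melting point raised past a set limit in the mean and every replicate; inconclusive means no clear call; three in four hits are not shown here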
Target sequence (Q9HCT0 whole entry, looked up): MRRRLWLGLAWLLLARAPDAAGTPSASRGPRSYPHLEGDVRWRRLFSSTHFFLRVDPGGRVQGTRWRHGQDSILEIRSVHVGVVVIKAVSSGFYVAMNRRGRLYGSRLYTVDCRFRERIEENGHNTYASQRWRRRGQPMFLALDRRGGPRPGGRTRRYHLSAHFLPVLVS
B2AR ag – activates human beta-2 adrenergic receptor causing internalization; P07550; Am2.2-beta2AR cells, FAP receptor internalization, flow cytometry; reference of the scale not given here; response, % (test concentration not listed); actives 0.43% (n = 340,000); AID 504454;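 active means response above a set limit, near 3 SD of response in nonfluorescent compounds, cut at about 42% in these data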;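 further: stock transfer was 100 nL into about 11 µL; a reference agonist was the positive control; negative values mostly stem from fluorescent compounds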
LANA-H2B inh – blocks KSHV LANA binding to histone H2A/H2B | Q9QR71 | cell-free LANA-H2A/H2B peptide, fluorescence polarization | inhibition, % (no concentration beside the values) | actives 0.6% (n = 320,000) | AID 2629; in the data active means inhibition mostly above about 10%, no sharp cut-off; inactive means mostly below about 6.7%;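 further: stock transfer was 7.5 nL into about 10 µL; 0% = median of vehicle wells and 100% = median of positive control wells; one replicate is shown; the record names a cut of 25% in any replicate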
E coli growth – E. coli growth inhibition | Escherichia coli growth, OD600, 23 h; hits give low values | OD600 absorbance (no concentration beside the values) | actives 0.21% (n = 330,000) | AID 1053175;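 active means OD600 absorbance below the run mean of sample wells minus 3.6 SD, in any replicate, cut at about 0.56 in these data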;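 further: stock transfer was 300 nL into about 60 µL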
ALR H2O2 inh – human ALR oxidase inhibition via reduced H2O2 | P55789 | purified ALR, DTT oxidation, H2O2 HRP-luminol luminescence | inhibition, % (concentration not given with the values) | actives 3.8% (n = 290,000) | AID 485317;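 active means mean and each replicate at 75% or more; inconclusive means only one of the two met; inactive means neither met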;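 further: stock transfer was 7.5 nL into about 7.5 µL; 0% = neutral wells and 100% = wells with inactivated enzyme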
UCH37 DUB inh – inhibitors of human deubiquitinating enzyme UCH37. inhibition, % (test concentration not listed). actives 0.33% (n = 330,000). purified proteasome/UCH37, Ub-AMC cleavage fluorescence. Q9Y5K5;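 active means mean of two replicates above 20%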;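 further: 0% = compound-free wells with enzyme and 100% = wells lacking proteasome; stock transfer was 100 nL into about 20 µL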
Target sequence (Q9Y5K5 whole entry, looked up): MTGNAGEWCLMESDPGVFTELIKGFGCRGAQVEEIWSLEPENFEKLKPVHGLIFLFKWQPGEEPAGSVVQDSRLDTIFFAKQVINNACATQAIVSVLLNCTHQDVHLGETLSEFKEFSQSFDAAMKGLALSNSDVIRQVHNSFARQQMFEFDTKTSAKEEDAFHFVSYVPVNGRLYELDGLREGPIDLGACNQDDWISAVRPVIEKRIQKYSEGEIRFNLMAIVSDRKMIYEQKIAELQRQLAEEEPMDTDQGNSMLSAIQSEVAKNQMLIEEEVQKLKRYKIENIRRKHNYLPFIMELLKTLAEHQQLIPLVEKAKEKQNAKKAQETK
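Material: Human UCH37 enzyme supplied as purified proteasome complex | Schedule: 30 min preincubation with enzyme, 25 min cleavage at room temperature | Detection: AMC fluorescence 355/460 nm | Measure: % inhibition of Ub-AMC cleavage fluorescence | Controls: Wells without proteasome as full block, compound-free enzyme plus substrate as uninhibited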
Active calls of the source: *; i = inactive; u = inconclusive; x = not tested or not shown.

SMILES	HNF4A DNA FP	FGF22 binding	B2AR ag	LANA-H2B inh	E coli growth	ALR H2O2 inh	UCH37 DUB inh
CC1(c2ccc3ccccc3c2)NC(=O)N(CC(=O)N2CCCC(C(F)(F)F)C2)C1=O (centres undefined)	2.0	i	-5.8	11.3	0.702	-9.3	1.4
COc1cc(/C=C/[N+](=O)[O-])ccc1OC(=O)/C=C/c1ccc(F)cc1	0.3	i	24.3	4.1	0.658	-9.5	1.9
Cc1cc(C)cc(NC(=O)C(=O)NCCCN2CCOCC2)c1	2.8	i	-12.4	-2.0	0.635	-4.6	-0.9
Cc1ccc(N(CC(=O)NCc2ccc(Cl)cc2)S(C)(=O)=O)cc1	0.1	i	-2.0	-0.4	0.715	-5.4	4.4
Cc1cccc(-c2c(O)cc(=O)[nH]c2Cl)c1	4.5	i	-3.5	0.5	0.688	-7.9	7.3
Cn1c(=O)c2c(nc(CN3CCN(c4ccccc4)CC3)n2CCN2CCOCC2)n(C)c1=O	x	x	x	1.3	0.633	x	1.5
O=C(NCC1CCCO1)c1cc2cc(F)ccc2[nH]1 (centres undefined)	-4.6	i	-4.2	-4.8	0.678	-14.5	-2.0
O=C(NC(=S)NCc1ccco1)c1ccccc1	2.4	i	1.3	-1.4	0.655	6.0	-1.3
COc1cc(OC)c(NC(=O)c2ccoc2C)cc1Cl	-2.9	x	4.3	-4.6	0.697	-1.4	-0.8
CCCc1nnc(NC(=O)CCC(=O)N2CCN(CCn3c(C)ccc3C)CC2)s1	0.1	x	3.0	-1.4	0.703	-1.6	3.7
Cc1ccc(C)c(S(=O)(=O)N2CCCOC2CNC(=O)C(=O)NC2CCCC2)c1 (centres undefined)	3.5	i	-5.9	5.5	0.71	-4.7	0.0
COc1ccccc1OCc1ccc(C(=O)Nc2ccc(Cl)cn2)o1	6.4	i	3.3	-0.2	0.714	-6.8	-0.6
O=C(COC(=O)c1cc(S(=O)(=O)N2CCOCC2)cs1)c1ccccc1	-0.5	x	0.2	1.3	0.627	-7.1	0.0
CCc1nc(SCC(=O)N2CCc3cc(OC)c(OC)cc3C2)c(C#N)cc1C	0.5	x	-0.6	0.6	0.746	-10.8	-4.7
Cc1cc(C)cc(NC(=O)C2CCN(C(=O)c3cccs3)CC2)c1	1.3	i	4.6	-2.1	0.662	-3.5	0.3
CCOC(=O)C1Cc2c([nH]c3ccccc23)CN1 (centres undefined)	1.6	x	15.6	1.7	0.704	17.7	-2.2
COc1ccc(Cc2nc3ccccc3c(=O)n2N)cc1OC	0.8	i	-7.3	1.1	0.659	0.6	2.4
CCCCn1c(SCC(=O)c2ccc(O)c(O)c2)nc2ccsc2c1=O	-7.2	x	-14.7	2.4	0.659	x	4.1
COc1cc(NS(=O)(=O)c2ccc3ccccc3c2)c2ncccc2c1	0.7	i	4.1	-1.4	x	-10.4	x
Cc1cc(C)nc(SCc2ccc(C(=O)O)o2)n1	-2.3	x	-3.6	6.6	0.678	-1.2	-0.2
CC(C)CN(C(=O)CSc1nc(N)cc(N)n1)C1CCS(=O)(=O)C1 (centres undefined)	4.2	x	-9.8	4.6	0.713	-3.8	2.7
CC(C)c1ccc(NC(=O)CN2CCN(c3ccccn3)CC2)cc1	-1.1	i	-5.4	-5.0	0.674	-4.3	2.6
CCOC(=O)c1cnc2ccc(C(=O)OC)cc2c1Nc1ccc2c(c1)OCCO2	-0.1	x	0.9	3.2	0.712	-6.3	2.8
CCOc1ccccc1NC(=O)c1ccc2[nH]c(C)c(C)c2c1	6.7	i	-1.2	4.1	0.695	-3.1	-10.5
O=C(O)CCSc1nnc(-c2ccc3c(c2)OCO3)o1	2.6	x	-0.6	-0.5	0.71	-2.3	1.2
Other records follow:
SMILES	HNF4A DNA FP	FGF22 binding	B2AR ag	LANA-H2B inh	E coli growth	ALR H2O2 inh	UCH37 DUB inh
O=C(c1ccc(S(=O)(=O)N2CCCCCC2)cc1)N1CCN(c2ccccn2)CC1	1.1	x	-1.7	-2.6	0.644	-2.6	3.5
Cc1cc(C)nc(N/N=C/c2ccc(N3CCOCC3)cc2)n1	0.4	i	-0.9	-1.9	x	97.3*	x
CCN(CC)CCn1c(NCc2ccc(C)o2)nc2ccccc21	-4.8	x	8.2	2.8	0.706	x	-4.7
Cc1ccc(C)c(NC(=O)C2CCC(C)(C(=O)O)C2(C)C)c1 (centres undefined)	4.2	x	4.4	1.4	0.678	-12.9	1.9
CC(C)C(NC(=O)c1c(F)cccc1F)C(=O)NC1CC(C)(C)NC(C)(C)C1 (centres undefined)	0.8	i	-0.9	-18.1	0.685	3.0	1.7
Cc1c(NC(=O)COC(=O)c2ccc[nH]c2=O)c(=O)n(-c2ccccc2)n1C	-0.9	i	-5.3	6.5	0.678	-2.2	3.1
Cc1cc(/C=N/n2cnnc2)c(C)n1-c1ccc(Cl)cc1Cl	1.0	x	5.6	-0.1	x	2.9	x
COc1ccccc1CCC(=O)OCC(=O)NC1CCCCC1	-1.1	i	-3.9	-17.3	0.725	-2.3	4.3
Cc1oc2cc3oc(=O)c(CC(=O)NCCCC(=O)O)c(C)c3cc2c1C	1.1	i	15.9	5.5	x	-2.8	x
C=CCN(Cc1nc(-c2ccc(OC)c(OC)c2)oc1C)C1CCS(=O)(=O)C1 (centres undefined)	1.6	i	1.0	2.1	0.682	-1.3	1.6
O=C(NCCS(=O)(=O)N1CCc2ccccc2C1)c1ccccc1	-2.2	i	-2.3	-1.2	0.714	-11.1	3.5
COCCN(CCOC)C(=O)CN1C(=O)NC(Cc2c[nH]c3ccccc23)C1=O (centres undefined)	-0.2	i	-0.2	-4.1	0.671	-11.5	0.3
CC1CCCN(C(=O)Nc2ccc(Br)cc2Cl)C1 (centres undefined)	1.9	i	-1.0	-3.6	0.709	-4.1	-2.6
CCCCCn1c(N2CCC(C(N)=O)CC2)nc2c1c(=O)[nH]c(=O)n2C	-0.7	x	-3.2	-4.4	0.773	22.5	1.7
O=C(/C=C/c1cn(-c2ccccc2)nc1-c1cccs1)NCCN1CCOCC1	-0.4	x	20.8	-4.7	0.668	-10.0	-77.7
CCN1CCN(c2ccc(S(=O)(=O)N3CCCCC3)cc2NC(=O)/C=C/c2ccc(OC)c(OC)c2)CC1	-2.5	i	19.5	-1.8	0.682	-29.8	1.2
CCOC(=O)C1Sc2[nH]c(=O)sc2C(c2ccc(Cl)cc2)C1C(=O)OCC (centres undefined)	-0.5	x	5.8	-2.2	0.69	20.2	-1.3
O=C(/C=C/c1ccc(S(=O)(=O)N2CCOCC2)cc1)NCc1ccccc1	0.1	i	-3.8	2.4	0.711	-26.6	2.2
Cc1ccc(C2CC(=O)N3CN(Cc4ccco4)CSC3=C2C#N)cc1 (centres undefined)	-1.2	x	-1.4	4.0	0.666	-10.6	4.4
O=C1CCCC2=C1C(Cc1ccccc1)C1=C(CCCC1=O)O2	-0.6	x	-6.8	6.6	0.747	-29.1	-2.0
N#C/C(=C/c1ccc(F)cc1)c1nc(CCN2C(=O)c3ccccc3C2=O)cs1	-3.8	x	-1.8	-2.3	0.745	-21.7	-9.8
O=[N+]([O-])c1cccc(C(=S)N2CCN(c3ccccc3)CC2)c1	2.2	x	1.5	2.6	0.688	6.1	0.9
O=C(CCn1c(=O)c2ccccc2n(CC(=O)N2CCN(c3ccccc3)CC2)c1=O)NCc1ccco1	0.7	i	-2.2	2.3	0.67	2.5	2.9
COC(=O)C1(C)Nc2ccccc2C(=O)N1c1ccccc1OC (centres undefined)	0.3	i	0.4	1.0	0.68	-14.6	-243.4
COc1cccc(C(=O)OCC(=O)c2ccc(Br)s2)c1OC	3.2	i	-5.1	-2.4	0.645	13.0	-0.1
Remaining list, next part:
SMILES	HNF4A DNA FP	FGF22 binding	B2AR ag	LANA-H2B inh	E coli growth	ALR H2O2 inh	UCH37 DUB inh
CCCCC(CC)CNC(=O)CCS(=O)(=O)c1cccc2nonc12 (centres undefined)	2.1	x	4.9	8.2	0.733	-1.6	2.6
COc1ccccc1P(=O)(c1ccccc1)c1ccc([N+](=O)[O-])cc1 (centres undefined)	0.8	i	-1.4	-2.6	0.651	-18.0	0.9
C=CCOc1ccc(/C=N/NC(=O)C(=O)N2CCCCCC2)cc1OC	-0.6	i	5.2	2.0	x	x	x
Cc1cc(C)cc(C(=O)NC(CC(N)=O)c2ccc(NC3CCCCCCC3)c([N+](=O)[O-])c2)c1 (centres undefined)	4.1	i	-1.7	0.6	0.693	1.9	0.9
CC(=O)Nc1ccc(OCC(O)CN2C(C)CCCC2C)cc1 (centres undefined)	3.2	x	-5.0	-3.0	0.67	-13.4	3.1
CC(C)c1ccc(CNCCCSc2ncccn2)cc1	1.3	i	-5.8	-2.6	0.702	-4.9	18.9
Cc1ccc(OCCCC(=O)Nc2ccc(S(=O)(=O)Nc3cc(C)nc(C)n3)cc2)cc1	-3.8	i	-0.4	0.4	0.733	x	6.1
Cc1cc(NC(=O)CCC(=O)N(CC(=O)NCC2CCCO2)c2ccc(Cl)c(Cl)c2)no1 (centres undefined)	2.7	i	-3.0	10.2	0.666	1.3	4.6
CCCc1nnc(SCC(=O)Nc2nc(C)cs2)n1CCOC	0.7	i	-1.2	-0.9	0.657	x	0.2
COc1ccc(-c2[nH]ncc2CN(CCO)CC23CC4CC(CC(C4)C2)C3)c(OC)c1	-0.1	i	6.4	-5.9	0.706	-18.4	4.5
C=CCNC(=O)c1onc(CSc2ccc(OC)cc2)c1C(=O)O	-8.2	i	-6.7	-3.7	0.713	13.3	2.5
CSc1nnc(C)c(=O)n1COC(=O)c1ccc(S(=O)(=O)N2CCCC2)cc1	2.6	x	1.1	-6.7	0.677	4.1	2.8
CC(=O)Nc1ccc(S(=O)(=O)c2cc(O)ccc2O)cc1	-0.5	i	2.6	-0.1	0.693	u	3.0
CCOC(=O)N1CCC(NC(=O)CS(=O)Cc2nc(-c3ccc(OC)c(OC)c3)oc2C)CC1 (centres undefined)	-3.1	x	-2.1	-2.1	0.685	99.7*	1.8
COC(=O)c1ccc(NC(=S)N2CCN(Cc3cccc(C)c3)CC2)cc1	-1.5	x	0.5	-1.1	0.708	4.0	0.5
O=C(NC(=S)Nc1ncccn1)c1ccccc1Br	1.6	i	-4.0	1.9	0.728	-7.7	0.2
Cc1cc(C(=O)CN2CCC(C)CC2)c(C)n1-c1ccc(F)cc1	5.1	i	-7.1	0.7	0.674	2.3	0.7
O=C(/C=C/c1c(F)cccc1Cl)c1ccc(F)cc1	0.8	x	15.3	-1.0	0.718	48.1	0.0
O=S(=O)(c1ccc(Br)s1)N1CCN(CCOc2ccccc2)CC1	-4.5	i	9.6	-1.1	0.693	-0.8	4.8
COc1cccc(C(C(=O)NC(C)(C)C)N(C(=O)CCC(=O)Nc2cc(C)on2)C2CC2)c1OC (centres undefined)	7.2	x	-4.6	3.2	0.737	-5.4	2.2
CCN(CC(=O)NCc1ccc(Cl)cc1)S(=O)(=O)c1ccc(NC(C)=O)cc1	1.0	i	7.4	-0.6	0.681	15.9	1.8
O=C(Nc1cccc2ccccc12)c1ccc([N+](=O)[O-])o1	-0.1	i	1.5	4.7	0.624	-23.4	6.8
COc1ccc([C@H]2CC(=O)C=C(c3ccc(C)cc3)C2)cc1OC	-1.3	i	-5.9	-1.8	x	-5.9	3.7
O=C(NCc1ccco1)C1(S(=O)(=O)c2ccc(Cl)cc2)CC1	-1.1	x	0.4	-1.2	0.697	-1.5	-0.6
COc1ccc(Cn2c(=O)[nH]c3cc(C(=O)NCCCN4CCCCCC4)ccc3c2=O)cc1	6.5	i	2.0	0.8	0.694	x	-1.2
COCCCn1cnc2c(c1=O)c1nc3ccccc3nc1n2-c1ccc(C)cc1	0.8	x	-12.8	1.5	0.741	-12.0	-3.1

Only part of the results is shown. The share of hits here may be higher or lower than overall.
